ClpP mod = qHTS Assay for Activators of ClpP; ATP-dependent Clp protease proteolytic subunit (Bacillus subtilis (strain 168)), P80244; Potency, µM (series often up to 57.5 µM), inactives show top-dose activity change, negative = active; purified B. subtilis ClpP, FRET peptide cleavage, 20 min; 1.9% of 340,000 active; active = well fitted falling curve with a large enough effect; inconclusive = small, poorly fitted or top-dose-only effect; inactive = no such curve, though single readings can be large or run the other way; also: potency is read from the fitted curve at half-maximal effect; the source files actives as falling curves though it sought activators and does not explain the sign; nearly all actives have a fitted effect of over 65% in size; many hits overshoot -100%
Target sequence (P80244 whole entry, looked up): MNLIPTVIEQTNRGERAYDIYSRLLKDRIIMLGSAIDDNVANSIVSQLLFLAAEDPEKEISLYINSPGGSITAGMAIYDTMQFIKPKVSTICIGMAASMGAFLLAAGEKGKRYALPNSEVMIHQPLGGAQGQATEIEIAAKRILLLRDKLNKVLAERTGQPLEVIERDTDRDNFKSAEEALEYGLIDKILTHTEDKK
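Purified B. subtilis ClpP, 10 microg/mL final in Tris/HCl pH8 with KCl, BSA, glycerol and Tween-20, cleaved an Abz/nitrotyrosine-quenched decapeptide. Fluorescence (ex 320, em 430) was read at 0 and 20 min at room temperature. Delta was normalized to 5.8 microM ADEP and DMSO/no-enzyme controls.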
Menin MLL FP FL = menin-MLL binding inhibition, fluorescein peptide. FP activity change, % at 61.4 µM. 290,000 tested, under 10 active. Fluorescence polarization, fluorescein-MLL peptide displacement from menin; inconclusive = falling polarisation curve, or a change in total fluorescence; inactive = total fluorescence flat and polarisation flat or rising; no compound was filed as active; the % refers to the polarisation; negative = inhibition;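 also: % of control where 0% means no effect; inhibitors lower the polarisation; unlabelled MLL peptide was the positive control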
TRPV1 potentiator = potentiators of human vanilloid receptor 1 (TRPV1) | Q8NER1 | TRPV1-expressing cells, Fluo-8 calcium influx, capsaicin EC20 potentiation; host cell line not named in the record; control for the full effect not named in the record | potentiation, % at 8.33 µM | 0.02% of 320,000 active; active means potentiation above 80%; inconclusive means 30% to 80%; inactive means below 30%; also: 0% is about no effect
Target sequence (Q8NER1 whole entry, looked up): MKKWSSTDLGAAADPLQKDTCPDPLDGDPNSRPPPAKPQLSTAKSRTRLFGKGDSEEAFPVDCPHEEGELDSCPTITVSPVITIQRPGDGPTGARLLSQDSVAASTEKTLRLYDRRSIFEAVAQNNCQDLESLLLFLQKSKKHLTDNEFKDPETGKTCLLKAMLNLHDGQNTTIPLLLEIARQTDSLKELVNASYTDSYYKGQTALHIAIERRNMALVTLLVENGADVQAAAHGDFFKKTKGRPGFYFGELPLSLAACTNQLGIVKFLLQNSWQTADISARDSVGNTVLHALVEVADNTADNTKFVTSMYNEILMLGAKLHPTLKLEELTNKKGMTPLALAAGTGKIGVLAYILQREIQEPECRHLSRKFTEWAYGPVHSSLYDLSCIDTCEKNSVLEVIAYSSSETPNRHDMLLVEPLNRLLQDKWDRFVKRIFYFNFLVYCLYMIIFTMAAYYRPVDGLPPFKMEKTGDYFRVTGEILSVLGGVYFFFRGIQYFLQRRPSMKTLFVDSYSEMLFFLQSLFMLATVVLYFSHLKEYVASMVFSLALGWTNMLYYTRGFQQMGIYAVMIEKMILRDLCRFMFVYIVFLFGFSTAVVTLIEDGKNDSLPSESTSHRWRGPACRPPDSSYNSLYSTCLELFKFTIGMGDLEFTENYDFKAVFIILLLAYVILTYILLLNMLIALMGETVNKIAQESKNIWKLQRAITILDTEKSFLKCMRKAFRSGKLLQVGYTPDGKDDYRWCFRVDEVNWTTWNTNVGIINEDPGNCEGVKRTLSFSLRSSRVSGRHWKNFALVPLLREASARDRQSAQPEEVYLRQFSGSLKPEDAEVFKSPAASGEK
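Cells expressing TRPV1 were dye-loaded with Fluo-8 and read kinetically: 10 s baseline, 3 min after compound (agonist portion), then 2 min after EC20 capsaicin (allosteric enhancer portion). Calcium-bound dye fluorescence at 480/520 nm.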
Sfp inh = inhibitors of Bacillus subtilis Sfp phosphopantetheinyl transferase. Q9F4F7. Biochemical Sfp PPTase activity, qHTS. Potency, µM, for inactives: max response, negative = inhibition, hits mostly inhibitors. 3.5% of 310,000 active; active = well fitted inhibition curve with a large enough effect; inconclusive = small, poorly fitted or top-dose-only effect, or another doubt; inactive = no such curve, though single readings can be large or run the other way;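 also: the enzyme is Sfp with the accession as filed and its product quenches rhodamine fluorescence; potency is read from the fitted curve at half-maximal effect; 0% = enzyme reaction without inhibitor and -100% = no enzyme wells; top concentration of the series not given in the record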
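Fluorescence-quenching assay: 15 nM Sfp-PPTase preincubated 15 min at room temperature with compound, then 5 uM rhodamine-CoA and 12.5 uM BHQ-2-labelled YbbR peptide added. Fluorescence (ex 525/em 598 nm) read at start and after 30 min; difference gives rate.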
TRPML1 inh = inhibitors of human TRPML1 channel; Q9GZU1; TRPML1-inducible cells, Ca2+ dye fluorescence, FDSS; active compounds read low; inhibition of EC80 agonist-evoked calcium signal; activity change, negative = inhibition, % (concentration not given with the values); 0.02% of 390,000 active; AID 624415; in the data active means activity change below about -50%; inconclusive means about -30% to -50%; inactive means above about -30%;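 also: stimulus is agonist 54-4 at its EC80 concentration; % is scaled to controls: 0 for no effect and ±100 for the full control effect; the text of the record puts the active cut at -80%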
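Calcium fluorescence in TRPML1-DL cells induced overnight with Tet: a 110 s read after compound pin addition, then a 110 s antagonist read after challenge with 54-4 at 4 uM final (EC80).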
PINK1 expr mod = modulators of PINK1 expression; PINK1 immunofluorescence, high-content cytometry, 24 h; Potency, µM (doses to about 76.6 µM), without a hit: at the highest dose activation (PINK1 increase), most hits filed as activators; 0.2% of 410,000 active; AID 624263; active = well fitted activation curve with a large enough effect; inconclusive = small, poorly fitted or top-dose-only effect; inactive = flat fitted curve, though single readings scatter; cell line not stated here;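 also: potency is read from the fitted curve at half-maximal effect; % of control where 0% means no effect; nearly all actives have a fitted effect of over 65% in size; a mitochondrial uncoupler was the plate control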
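Cells are seeded, rested 12 hours, then given compound at five concentrations or DMSO for 24 hours. After fixation, blocking and antibody staining, PINK1 amount and mitochondrial localization are scored; CCCP serves as control.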
TRPML1 ag = human mucolipin-1 channel agonism; TRPML1-expressing cells, Ca2+ dye fluorescence, FDSS; host cell line not named in the record; reference of the full effect not given here; activation, % (concentration not given with the values); AID 624414; 0.12% of 410,000 active; in the data active = activation above about 50%; inconclusive = about 30% to 50%; inactive = below about 30%; also: 0% is about no effect; the text of the record puts the active cut at 80%
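Tet-induced TRPML1-DL cells, 1,500 per well, cultured overnight, were loaded with a no-wash Ca2+ dye for 45–90 min. Calcium fluorescence was recorded on the FDSS for 110 s after compound addition, before the EC80 agonist (4 uM 54-4) was added.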
* = called active by the depositor; ? = inconclusive; nt = not tested or not shown; & = joins results of further samples; [ ] = another dose, or the depositor's remark.

Results follow in this order: ClpP mod	Menin MLL FP FL	TRPV1 potentiator	Sfp inh	TRPML1 inh	PINK1 expr mod	TRPML1 ag
1) COC(=O)NC1CSCC1OC(=O)CN1C(=O)c2ccccc2C1=O (centres undefined)
 : 3.7%	2.9	4	23%	-3	0.5%	0.0
2) C/C(C/C(C)=C1/SC(=S)NC1=O)=C1\SC(=S)NC1=O
 : nt	?	19	79µM*	-2	0.2%	-0.2
3) O=C(O)c1ccc(CSc2ncn[nH]2)cc1
 : 1.3%	2.0	6	6%	7	-6.1%[38.3 µM]	0.9
4) O=C(CCc1nnc2ccc(N3CCC4(CC3)OCCO4)nn12)Nc1ccc(F)cc1
 : 0.1%	5.1	2	15%	16	-0.3%	0.4
5) O=C(Cn1cnc2c(nnn2Cc2ccc(Cl)cc2)c1=O)OCc1ccccc1
 : -0.5%	0.8	10	-4%	2	nt	1.5
6) CC1(C)C2(C#N)C(N)=NC3(OCCO3)C12C#N (centres undefined)
 : 1.8%	-0.8	4	11%	10	0.1%	-0.1
7) O=C(N/N=C/c1ccccn1)NC12CC3CC(CC(C3)C1)C2
 : nt	2.0	10	0%	8	3.4%	0.3
8) COc1ccc(N(CC(=O)Nc2ccc3c(c2)OCO3)S(C)(=O)=O)c(OC)c1
 : -0.4%	-3.2	11	-5%	5	-2.0%	-0.3
9) CCS(=O)(=O)c1ccc(O)c(NC(=O)Nc2ccccc2)c1
 : -1.1%	-1.9	-4	5%	38	4.2%[38.3 µM]	0.6
10) CC(=O)Nc1ccc(C(=O)OCC(=O)NC2CCCCCC2)cc1
 : 0.0%	nt	nt	nt	-20	2.0%	-0.5
11) CN1C(=O)CC(N2CCN(C(=O)c3ccccc3)CC2)C1=O (centres undefined)
 : -2.0%	-0.6	-11	7%	10	-0.4%	0.4
12) CN1CCN(C2CC(=O)N(c3ccc4c(c3)OCCO4)C2=O)CC1 (centres undefined)
 : 0.0%	?	4	-1%	6	0.8%	0.0
13) COc1ccc(C)cc1NC(=O)CSc1nc2ccccc2nc1N1CCCC1
 : -25%	4.8	-2	-12%	-12	3.4%	1.1
14) OCC1(CCOc2ccccc2)CCN(Cc2ccc3cccc(F)c3n2)CC1
 : nt	-0.7	-12	8%	10	-2.2%	0.3
15) CC(C)CC(=O)NC1(C(F)(F)F)C(=O)Nc2c1c(=O)[nH]c(=O)n2-c1ccccc1 (centres undefined)
 : -1.5%	nt	nt	nt	-10	-1.3%	0.5
16) Cc1ccc(C)c(CN2C(=O)c3ccccc3S(=O)c3ccc(C(=O)NCCc4ccc(Cl)cc4)cc32)c1 (centres undefined)
 : -6.3%	nt	nt	nt	-8	-0.3%	0.0
17) O=c1c2ccccc2nc(-c2ccccc2)n1Cc1ccc(Cl)cc1
 : -4.4%	3.9	-13	11%	7	-0.3%	2.0
18) Cc1ccc(-c2cc(C(=O)Nc3c(C(=O)c4ccc(C)c(F)c4)oc4ccccc34)no2)cc1
 : -3.6%	nt	nt	nt	-7	0.3%	-0.6
19) CC(CN1CCN(C)CC1)OC(=O)c1cccc(Cl)c1 (centres undefined)
 : nt	-7.3	4	7%	4	3.7%	0.7
20) CCC(C)(NC(=O)c1ccccn1)C(=O)NC1CCCCC1 (centres undefined)
 : 0.4%	8.5	14	7%	-11	0.5%	-0.7

The final 2 compounds of the part before open the next one:
Results follow in this order: ClpP mod	Menin MLL FP FL	TRPV1 potentiator	Sfp inh	TRPML1 inh	PINK1 expr mod	TRPML1 ag
19) CC(CN1CCN(C)CC1)OC(=O)c1cccc(Cl)c1 (centres undefined)
 : nt	-7.3	4	7%	4	3.7%	0.7
20) CCC(C)(NC(=O)c1ccccn1)C(=O)NC1CCCCC1 (centres undefined)
 : 0.4%	8.5	14	7%	-11	0.5%	-0.7
21) COc1ccc(OC)c(CNC(=O)c2cc(=O)[nH]c3ccc(S(=O)(=O)N4CCCC4)cc23)c1
 : nt	1.6	-4	14%	nt	nt	nt
22) COc1ccc(-c2csc(C(C#N)=C(O)CSc3nccn3C)n2)cc1OC
 : nt	nt	nt	nt	20	1.9%	1.5
23) O=C(c1ccccn1)N1CCN(S(=O)(=O)c2ccc(F)cc2)CC1
 : ?	-7.7	-10	-1%	-5	1.3%	-0.9
24) CSCCC(NC(=O)C1CCC(C)CC1)C(=O)Nc1ccc(NC(C)=O)cc1 (centres undefined)
 : nt	-2.3	8	21%	-7	-0.9%	-0.7
25) CN1c2ccccc2C(C)(C)C12C=Nc1c(ccc3ccccc13)O2 (centres undefined)
 : -6.5%	14	22	-94%	19	0.6%	0.5
26) Cc1nc(C2CCCCC2)c(-c2ccccc2)c(N2CCOC2=O)c1C
 : -5.2%	nt	nt	nt	5	0.5%	2.0
27) CCn1c(SCC(=O)NC(C)(C)C)nnc1-c1ccccn1
 : -3.0%	-2.2	?	17%	7	1.2%	-0.5
28) COc1cc(C2C(C#N)=C(N)Oc3c2ccc2ccccc32)ccc1OCC(=O)Nc1ccc(C)cc1 (centres undefined)
 : -0.7%	8.1	-12	?	17	1.9%	-0.1
29) CCCCC(C(=O)OCC(=O)c1ccc(OC)cc1)N1C(=O)c2ccccc2C1=O (centres undefined)
 : -0.3%	4.7	9	15%	-15	-1.8%[38.3 µM]	3.7
30) CS/C(N)=N/N=C/c1c(O)ccc2ccccc12
 : -1.9%	3.6	-9	2%	nt	1.3%	nt
31) Nn1c(SCC(=O)Nc2ccc3c(c2)OCO3)nnc1-c1cccc(Cl)c1
 : -1.6%	1.5	-2	-8%	4	12%	0.5
32) Cc1ccc(C)c(SCC(=O)NCc2ccco2)c1
 : 3.5%	1.5	?	-7%	-12	-1.3%	-0.3
33) Cc1coc2c(C)c3oc(=O)c(CCC(=O)N[C@H](C(=O)O)C(C)C)c(C)c3cc12
 : 4.1%	nt	nt	nt	-16	0.8%	0.0
34) C=CCNC(=O)/C=C/c1cccs1
 : nt	6.1	6	12%	-4	7.3%	-0.8
35) O=C(CC(=O)Nc1ccccc1C(=O)O)NNC(=O)Cc1ccccc1
 : nt	-1.3	-25	-21%	-20	0.9%	1.7
36) COC(CNC(=O)c1ccc2c(c1)nc(C)n2-c1cccc(C)c1)OC
 : nt	0.7	28	22%	-13	0.3%	-0.7
37) O=[N+]([O-])c1ccc(Nc2nc(NC3CCCCC3)nc(N3CCCC3)n2)cc1
 : nt	-3.4	-15	2%	4	?	-1.0
38) CCOC(=O)c1c(-c2ccccc2)oc2ccc(OCC(N)=O)cc12
 : 4.0%	0.1	-5	8%	nt	1.3%	nt
39) Cc1nc(Sc2ccc(Cl)cc2)c(C#N)c(C)c1[N+](=O)[O-]
 : nt	1.2	5	2%	15	-2.2%	0.4
40) Cc1c(NC(=O)CN2CCN(C(=O)c3ccco3)CC2)c(=O)n(-c2ccccc2)n1C
 : 0.4%	5.6	5	8%	21	22%[38.3 µM]	0.3
41) COC(=O)c1ccc(OC(=O)c2cccnc2)cc1
 : -3.0%	-0.5	4	4%	-12	0.0%	-0.1
42) CCOC(=O)c1cnc2ccc(C)cc2c1NCCc1ccc(OC)c(OC)c1
 : -5.4%	nt	nt	nt	-6	4.0%	0.3
43) Cc1ccccc1C(=O)NC(CC(C)C)C(=O)N1CCN(c2ccccc2)CC1 (centres undefined)
 : nt	0.6	10	17%	7	0.3%	0.3
44) CS(=O)(=O)CCC(C(=O)O)N1C(=O)c2ccc(Oc3ccc(Cl)cc3)cc2C1=O (centres undefined)
 : -0.5%	-2.4	-2	1%	-7	-2.9%	1.2
45) COc1ccc(N2C(=NC(=O)CCC3CCCC3)SC3CS(=O)(=O)CC32)cc1 (centres undefined)
 : -1.9%	-4.5	-1	6%	7	2.7%	1.1
46) Cc1nnc(Nc2ccc(C(=O)NCCO)cc2)c2ccccc12
 : -2.1%	1.3	3	3%	56	3.6%[38.3 µM]	-0.1
47) O=c1c(=NNc2ccccc2Cl)c(=O)c2ccccc12
 : 1.8%	1.1	1	13%	-3	2.4%	3.8
48) COc1ccc(C(C)(NC(C)=O)c2nc(-c3ccncc3)cs2)cc1 (centres undefined)
 : 0.2%	nt	nt	nt	nt	0.3%	-0.5
49) COc1cccc(C(=O)OCC(=O)c2c[nH]c3ccccc23)c1O
 : nt	-0.5	1	13%	-2	15%	-0.8
50) Cc1cc([N+](=O)[O-])nn1CCCC(=O)N1CCN(c2ccc(F)cc2)CC1
 : -4.9%	2.0	-5	34%[activator]	8	2.2%	0.4
51) Cc1ccccc1OCCNCC(C)O (centres undefined)
 : nt	-3.3	-26	-8%	15	-0.7%	-0.8
52) CCc1ccc2ncc3c(-c4ccc(F)cc4)nn(CC(=O)NCc4ccccc4)c3c2c1
 : -7.6%	nt	nt	nt	-14	2.0%	0.1
53) CCOC(=O)C1CCN(CC(=O)Nc2cc(S(=O)(=O)N3CCOCC3)ccc2C)CC1
 : nt	-5.2	14	-22%	30	1.2%	-0.5
54) CC(O)(c1ccc(F)c(F)c1)c1nc(/C=C/c2ccccc2)cs1 (centres undefined)
 : -15%	nt	nt	nt	nt	15%	-0.5
55) COc1cccc2c1C(=N)c1c(O)c3c(c(O)c1C2=O)CC(O)(C(C)=O)CC3OC1CC(N)C(O)C(C)O1 (centres undefined)
 : 1.4%	nt	nt	nt	-2	-7.2%	-0.2
56) CCCOc1ccc(-c2nnc(N)s2)cc1
 : -21%	0.5	-5	-1%	2	1.3%	0.0
57) CC1CCc2nc(NC(=O)COc3ccc(C(C)(C)C)cc3)sc2C1 (centres undefined)
 : -2.2%	nt	nt	nt	-14	5.5%	-0.3
58) CSc1nc(O)c(C2OC(=O)c3ccccc32)c(=O)[nH]1 (centres undefined)
 : 2.3%	0.6	18	3%	-13	1.4%	1.4
59) CCN(CC)CCC(c1cc(OC)c(OC)c(OC)c1)c1c(O)cc(OC)cc1OC (centres undefined)
 : -1.6%	-3.3&0.1	-15	-10%&-4%	-7&14	0.3%	1.2&0.1
60) CCOC(=O)C1=C(C)N=C2SC(C(=O)OC)=CC(=O)N2C1c1cccc(OC)c1 (centres undefined)
 : -5.4%	4.9	-1	?	-17	5.2%	-0.2
61) Cc1cccc(NC(=O)CSc2ccc(C(N)=O)cc2[N+](=O)[O-])c1C
 : 0.8%	7.4	-7	-5%	-10	-0.1%	-1.0
62) Cc1ccc(CNS(=O)(=O)c2ccc(N3CCCCS3(=O)=O)cc2)cc1
 : -0.3%	nt	nt	nt	11	0.5%	-0.8
63) Cc1ccc2nc(NC(=O)CN(C)S(=O)(=O)c3cccc4nsnc34)sc2c1
 : 3.0%	-1.0	-42	-3%	-3	14%	-0.3
